Rce1 inhib – yeast Ras-converting enzyme inhibition | Q03530 | yeast membranes, quenched prenylated peptide cleavage fluorescence | calls only | 290,000 compounds, 0.27% hits | AID 2563;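 active = fall in fluorescence gain of 50% or more versus controls, with final raw signal at or below 3038400; inconclusive = same 50% fall but final raw signal above 3038400; inactive = fall in fluorescence gain under 50%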;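 also: plate controls were neutral control wells for no effect and wells lacking membranes for full effect; tested at 10 µM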
Target sequence (Q03530 whole entry, looked up): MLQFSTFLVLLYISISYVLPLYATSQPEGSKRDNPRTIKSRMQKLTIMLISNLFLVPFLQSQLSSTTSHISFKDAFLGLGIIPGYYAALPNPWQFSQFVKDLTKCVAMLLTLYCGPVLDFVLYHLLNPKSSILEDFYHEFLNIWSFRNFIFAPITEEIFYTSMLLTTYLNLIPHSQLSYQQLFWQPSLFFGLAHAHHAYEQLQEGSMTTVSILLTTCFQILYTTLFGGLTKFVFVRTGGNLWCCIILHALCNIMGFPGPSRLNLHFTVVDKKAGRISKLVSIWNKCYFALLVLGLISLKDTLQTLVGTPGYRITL
CSC inhib – cancer stem cell inhibition | cancer stem cell-like cells viability, luminescence | inhibition, % at 7.5 µM | 300,000 compounds, 1.1% hits | AID 2717;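 active = mean at 75% or more and at least half the replicates too; inconclusive = mean and replicates disagree; tested in HMLE shEcad cells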;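 also: 0% = median of negative and 100% = median of positive control wells; the first replicate is given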
eIF4H FP inh – inhibitors of RNA binding by human eIF4H | 290,000 compounds, 0.94% hits | AID 2012 | inhibition, % at 35 µM | eIF4H fluorescence polarization binding assay;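 active = 50% or more with normal probe brightness, or confirmed in later tests; inconclusive = above 50% with abnormal brightness, or retests that disagree; inactive = below 50% or failed in later tests; about a fifth of its hits are not listed in these tables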;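 also: calls also rest on retests at 20 µM and on dose response follow-up; 0% = protein and probe with vehicle and 100% = probe without protein; strong numbers were not always called active; many hits fall short of the cut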
MT1-MMP act inh – blocks activation of human MT1-MMP; P50281; HT1080 RFP-PRO-GFP cells, GFP/RFP ratio fluorescence, overnight; percent of plate control window, DMSO zero; GFP/RFP ratio change, % at 20 µM; 360,000 compounds, 0.061% hits; AID 651647;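 active = GFP/RFP ratio change of at least 30% with cell ATP level not reduced by more than half and red fluorescence within 50% of control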; also: strong numbers were not always called active
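system = RFP-PRO-GFP reporter HT1080 cells | dosing = 20 µM single dose, 1% DMSO | timing = overnight cell settling, then overnight compound exposure, 37 °C, 5% CO2 | read-out basis = GFP/RFP fluorescence ratio | controls = DMSO and RFP-L50D-GFP cell wells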
Yeast UUG start – alters start codon recognition fidelity in yeast; S. cerevisiae UUG-firefly luciferase reporter, luminescence/redox ratio; activity score, % at 18.7 µM; 350,000 compounds, 0.13% hits;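 active = replicate mean at a twofold rise or more, about +100% in these data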;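 also: firefly luciferase made from a UUG start codon reports start codon fidelity; reporter light over untreated wells divided by growth signal over untreated wells; some hits fall short of that in this replicate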
PABP FP inh – PABP-poly(A) binding inhibition. PABP-poly(A) RNA binding, fluorescence polarization. inhibition, % at 35 µM. 290,000 compounds, 1% hits. AID 2014;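 active = 50% or more with normal probe brightness, or confirmed in later tests; inconclusive = above 50% with abnormal brightness, or retests that disagree; inactive = below 50% or failed in later tests; about a fifth of its hits are not listed in these tables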;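 also: calls also rest on retests at 20 µM and on dose response follow-up; controls were probe without protein and protein plus probe with vehicle; some compounds called inactive have numbers as strong as hits; many hits fall short of the cut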
Env fusion inh – blocks HIV Env-driven cell-cell fusion. inhibition, % at 12.3 µM. HeLa-JRFL Env/CEM21 cell fusion, luciferase. 360,000 compounds, 1.1% hits;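 active = mean replicate inhibition score of at least 50 and every replicate individually at or above 50; inconclusive = only one of the two criteria met; inactive = mean below 50 and not all replicates reaching 50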;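 also: 0% = plate neutral controls and 100% = maraviroc near 300 nM; one replicate is shown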
eIF4H FP inh retest – recorded beside eIF4H FP inh, whose call it bears; inhibition, %; compound at 20 µM; confirmation average;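 mean of two retest wells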
PABP FP inh retest – recorded beside PABP FP inh, whose call it bears; inhibition, %; compound at 20 µM; confirmation repeats;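 mean of two retest wells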
MT1-MMP act inh RFP – second read-out of MT1-MMP act inh, no call of its own (marks repeat the call); RFP signal change, %; measured here: RFP expression control read;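 0 = vehicle wells; hits needed this value within 50% of zero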
An asterisk follows results filed as active; i = inactive; ? = inconclusive; nt = no result given. This is a subset, so the mix of outcomes need not match the whole.

SMILES | Rce1 inhib | CSC inhib | eIF4H FP inh | MT1-MMP act inh | MT1-MMP act inh RFP | Yeast UUG start | PABP FP inh | Env fusion inh | others
Cc1ccc(NC(=O)NN2CCOCC2)cc1 | i | nt | 5 | 0 | 5 | nt | -2 | -10
CN(C)S(=O)(=O)c1ccc(C(=O)OCC(=O)Nc2cccnc2Cl)cc1 | i | -10 | 0 | -3 | -1 | nt | -12 | 21
COc1ccc(-n2c(COc3cccc4ccccc34)nnc2SCC#N)cc1 | nt | -9 | -7 | -8 | -10 | -19 | 2 | nt
O=C(O)c1ccccc1NC(=O)N1CCOCC1 | i | 1 | 3 | 0 | 1 | nt | 3 | 8
COc1ccc(OC)c(N(CC(=O)N2CCN(Cc3ccccc3)CC2)S(C)(=O)=O)c1 | i | -1 | 7 | -3 | -2 | -17 | -2 | 10
O=C(/C=C\N1CCOCC1)c1ccc(Br)cc1 | i | -12 | -1 | -4 | -3 | -7 | 5 | -24
Cc1ccc(-c2cnn(-c3cccc([N+](=O)[O-])c3)c2N)cc1 | i | 0 | -10 | 3 | 2 | -12 | 9 | -105
O=C1C(Cl)=C(Nc2ccc(F)cc2)C(=O)N1CCc1ccccc1 | i | 7 | 2 | 0 | 2 | nt | -8 | -8
CCOc1ccc(OCCOC(=O)CN(C)S(=O)(=O)c2ccc(NC(C)=O)cc2)cc1 | i | 30 | nt | -1 | -2 | 1 | nt | -4
O=C(CSc1ccccc1)NNC(=O)c1ccncc1 | nt | nt | nt | 2 | 5 | -18 | nt | -48
Cc1ccc(/C(O)=C2/C(=O)C(=O)OC2c2ccc(Cl)cc2)cc1 (stereo not drawn) | i | nt | -2 | 3 | -1 | -23 | 3 | nt
N#CCOc1ccc2oc(-c3ccco3)cc(=O)c2c1 | nt | -1 | 9 | nt | nt | nt | 0 | nt
COC(F)(C(=O)Nc1ccc2c(c1)C(=O)NC2=O)C(F)(F)F (stereo not drawn) | i | 8 | 6 | 1 | 5 | -16 | -4 | -14
C/C(=N\NC(=O)CN(c1ccccc1Br)S(C)(=O)=O)c1cccs1 | i | 18 | 9 | 2 | -1 | nt | -1 | -2
CC(C)CCNC(=O)CN(C(=O)CCC(=O)Nc1ccccn1)c1ccc2c(c1)OCCO2 | i | -6 | 11 | -4 | 0 | -6 | -3 | -6
O=C(NS(=O)(=O)Oc1ccc(F)c(Cl)c1)OC[C@@H]1CCCN2CCCCC12 (stereo partly drawn) | i | 10 | -5 | -1 | 3 | nt | -13 | 21
O=C(COC(=O)C12CC3CC(CC(Br)(C3)C1)C2)NNC(=O)c1ccccc1 | nt | -11 | nt | -4 | 1 | -16 | nt | nt
COCCn1c(SCC(=O)Nc2ccc(F)cc2)nc2ccccc2c1=O | i | -12 | -1 | -2 | -2 | -20 | 0 | 10
O=C(C[C@@H]1C/C=C\C[C@H](Cc2ccc(F)cc2)C(=O)OC[C@@H](c2ccccc2)NC1=O)NCCO | nt | 15 | nt | nt | nt | -3 | nt | 2
CN(C)S(=O)(=O)N1CCC(Oc2cccc(C(=O)N3CCSCC3)c2)CC1 | i | -3 | 7 | 2 | -2 | -1 | 12 | -1
N#C/C(=C\c1c(Oc2ccccc2F)nc2ccccn2c1=O)C(=O)NC1CCS(=O)(=O)C1 (stereo not drawn) | i | 1 | 1 | 3 | 3 | -8 | 6 | -20
Cc1cccc(N(CC(=O)N2CCN(c3ccccc3F)CC2)S(C)(=O)=O)c1 | i | -13 | -6 | 1 | 5 | -33 | -3 | 1
COCCn1c(N)c(Sc2ccc(C)cc2)c(=O)[nH]c1=O | i | 0 | 0 | 2 | 2 | 6 | 0 | 10
CC1=Nc2ccc(Br)cc2C(c2ccccc2)N1CC(=O)NN (stereo not drawn) | i | -16 | -5 | 3 | 0 | nt | -12 | 19
C/C(=N\NC(=O)c1ccc(Cl)cc1)c1cccs1 | i | nt | -1 | 5 | -1 | -41 | 0 | -45
O=C(C1=C[C@H](c2ccccc2)C[C@H](OCc2ccc(CO)cc2)O1)N1CCN(Cc2ccccc2)CC1 | i | -8 | 14 | -6 | 1 | -9 | 22 | 16
CC(=O)c1ccc(NC(=O)c2ccccc2Sc2ncnc3sc(C)c(C)c23)cc1 | i | -6 | -3 | -1 | 2 | 4 | 1 | -10
COc1ccc(C(=O)NC(=S)Nc2cccnc2)cc1[N+](=O)[O-] | i | 0 | 46 | -1 | -1 | nt | 75 | -6 | eIF4H FP inh retest=1;PABP FP inh retest=-3
CC(C)C(C(=O)NCC1CCCO1)N(C(=O)CNS(=O)(=O)c1ccc(F)cc1)c1ccccc1 (stereo not drawn) | i | -1 | 1 | 2 | 5 | -1 | 0 | 4
COc1ccccc1Nc1nc(C)cc(=O)[nH]1 | i | -3 | -8 | 3 | 7 | -4 | -7 | nt

A draw from above in order of heavy-atom count, falling.
SMILES | Rce1 inhib | CSC inhib | eIF4H FP inh | MT1-MMP act inh | MT1-MMP act inh RFP | Yeast UUG start | PABP FP inh | Env fusion inh | others
CCOc1ccc(OCCOC(=O)CN(C)S(=O)(=O)c2ccc(NC(C)=O)cc2)cc1 | i | 30 | nt | -1 | -2 | 1 | nt | -4
COCCn1c(SCC(=O)Nc2ccc(F)cc2)nc2ccccc2c1=O | i | -12 | -1 | -2 | -2 | -20 | 0 | 10
C/C(=N\NC(=O)c1ccc(Cl)cc1)c1cccs1 | i | nt | -1 | 5 | -1 | -41 | 0 | -45

Carrying on:
SMILES | Rce1 inhib | CSC inhib | eIF4H FP inh | MT1-MMP act inh | MT1-MMP act inh RFP | Yeast UUG start | PABP FP inh | Env fusion inh | others
O=C(c1ccc(Cl)c([N+](=O)[O-])c1)N(Cc1cccc(Cl)c1)C1CCS(=O)(=O)C1 (stereo not drawn) | i | -5 | -8 | 0 | 5 | nt | 20 | -27
CCN(CC)CCn1c(NCc2ccccn2)nc2ccccc21 | i | -3 | 0 | 3 | 0 | -19 | 35 | -58
CC(=O)Nc1ccc(N2C(=O)CSC2c2c(F)cccc2Cl)cc1 (stereo not drawn) | i | 3 | -3 | 3 | 3 | 19 | -3 | -35
O=C(NCCCN1CCOCC1)c1cccc(S(=O)(=O)N2CCOCC2)c1 | nt | nt | nt | 1 | 4 | -23 | nt | -9
CCC(=O)Nc1ccc(-c2nnc(SCC(=O)Nc3nccs3)n2C)cc1 | i | 8 | 12 | 3 | 1 | -16 | 53* | -95
CC(=O)c1cccc(NC(=O)CCn2c(=O)oc3ccccc32)c1 | nt | 2 | -21 | -1 | 3 | -21 | 1 | 22
COc1cc(NC(=O)Nc2ccccc2)c(OC)cc1NC(=O)CN1CCCCC1 | i | -5 | -6 | nt | nt | nt | -1 | nt
C=C1CCN(c2ccc(C(=O)NCc3ccc(C)cc3)cc2[N+](=O)[O-])CC1 | i | 14 | 2 | 0 | 2 | -13 | 1 | -14
O=C1NCC(CN(c2ccccc2)c2ccccc2)O1 (stereo not drawn) | nt | -15 | -4 | -3 | -2 | -10 | 2 | 2
Cc1ccc(-c2nnc(N3CCN(C(=O)Cn4c(=O)n(C)c5ccccc54)CC3)c3ccccc23)cc1 | i | -2 | -7 | -4 | -11 | -4 | 8 | -8
CC(C)c1ccc2nc(N)sc2c1 | i | -20 | 3 | -5 | -5 | -58 | 10 | -47
CC(C)c1ccc(C(=O)OCC(=O)Nc2cccc(S(=O)(=O)NC3=NCCC3)c2)cc1 | nt | nt | nt | -2 | 2 | -4 | nt | -12
Cc1sc(CO)c(Sc2ccccc2)c1C(=O)O | i | -1 | 8 | nt | nt | nt | 5 | nt
COc1ccc(CNC(=O)CN2CCN(c3ccccc3)CC2)cc1 | i | 7 | 7 | -1 | 3 | -17 | -3 | -6
CC(=O)N1CCCc2cc(S(=O)(=O)N3CCN(c4ccccn4)CC3)ccc21 | i | 2 | -10 | -8 | -5 | 2 | 1 | nt
Cc1ccc(-c2ccc(S(=O)(=O)N3CC(C)OC(C)C3)cc2)cc1 (stereo not drawn) | i | -6 | 12 | 1 | -7 | 21 | 6 | 0
C=CC(=O)Nc1cccc(Oc2ccnc(Nc3ccc(N4CCN(C)CC4)cc3)n2)c1 | nt | nt | nt | -24 | -8 | -6 | nt | ?
CCN=C1SC(C(=O)Nc2cccc(C(=O)O)c2)CC(=O)N1CC (stereo not drawn) | i | -1 | -3 | -1 | -1 | -18 | 11 | 17
Cc1cc(N2CCCC2)ccc1NC(=O)CN1C(=O)NC2(CCCCC2)C1=O | i | -2 | nt | 4 | -1 | -25 | nt | -11
COc1ccccc1NS(=O)(=O)NC(=O)c1cn(C)c2ccccc12 | i | 13 | -8 | 3 | 6 | nt | -2 | 5
Cc1ccc(Oc2c(C=O)c3ccccc3n2C)cc1 | nt | 16 | 7 | -8 | -10 | nt | -10 | nt
Cc1ccc(S(=O)(=O)N[C@H](C(=O)OCC(=O)N2N=C(c3ccc(Cl)cc3)CC2c2ccco2)C(C)C)cc1 (stereo partly drawn) | i | -19 | 7 | -6 | -11 | nt | 6 | 11
O=S1(=O)N=C(Nc2ccc(O)cc2)c2ccccc21 | i | -13 | -2 | -3 | -3 | nt | -2 | 13
Cc1ccc(NC(=O)C2CCCN2C(=O)OC(C)(C)C)cc1C (stereo not drawn) | i | -4 | 3 | 4 | 7 | nt | 4 | -25
COC(=O)c1cn(CCOc2ccccc2OC)c2ccccc12 | i | 7 | 0 | 0 | -14 | -9 | 4 | nt
N#Cc1cc(-c2ccccc2)nc(Oc2ccc(Cl)cc2)n1 | i | 11 | -6 | -7 | -19 | nt | 5 | ?
O=C(Nc1ccc2c(c1)CCC2)c1cccc(S(=O)(=O)N2CCN(c3ccc(F)cc3)CC2)c1 | i | -8 | -9 | -2 | -13 | -10 | -8 | nt
C=CCS(=O)(=O)N1CCCC(N(C)CCc2ccc(OC)c(OC)c2)C1 (stereo not drawn) | i | 0 | 0 | 3 | 6 | 15 | 9 | 5
Cc1ccc(OCC(=O)O/N=C(\N)c2ccncc2)cc1C | nt | -5 | -15 | 2 | -4 | -23 | 1 | -24
COc1ccc(N2C(=O)CC(n3cnc4ccccc43)C2=O)cc1 (stereo not drawn) | i | nt | -4 | 1 | 3 | -8 | 2 | -5
CC(=O)c1cccc(S(=O)(=O)Nc2ccc(N3CCOCC3)cc2)c1 | i | -3 | -12 | 1 | -2 | -13 | -8 | 14
O=C(COC(=O)c1ccc(NC(=O)C2CC=CCC2C(=O)O)cc1)c1ccccc1 (stereo not drawn) | i | 18 | 3 | 0 | 1 | -5 | 16 | -9
CCCNC(=O)Cc1ncn[nH]1 | i | -7 | -1 | 0 | 2 | -8 | 2 | -40
Cc1cc(C)c(C#N)c(N2CCC(C(N)=O)CC2)n1 | i | -3 | -5 | -1 | 4 | nt | 3 | 2
COc1ccc(N/N=C(/Oc2ccc([N+](=O)[O-])cc2)C(C)=O)cc1 | i | -5 | 0 | -3 | -7 | -12 | -12 | -21
Cc1cc(Cl)ccc1NS(=O)(=O)c1c(C)[nH]c(=O)[nH]c1=O | i | -7 | 1 | -3 | 3 | 6 | 2 | -21
CCOc1ccc(S(=O)(=O)N(C)CC(=O)NCc2ccccn2)cc1Cl | i | -9 | -21 | 2 | 2 | -2 | -5 | 1
CC(O)[C@H]1CN=C(N)N1CCc1cc(C(F)(F)F)cc(C(F)(F)F)c1 (stereo partly drawn) | i | -9 | -8 | -1 | 5 | -11 | -9 | -19
Cc1ccc(Nc2ccccc2)nn1 | i | -1 | 8 | -2 | 0 | -19 | 1 | -3
COc1cc(C=C2C(=O)c3ccccc3C2=O)cc(OC)c1 | i | 2 | 4 | -45 | 6 | nt | 4 | 8

Screening results deposited in PubChem BioAssay by several laboratories.
